A488 fluor – A488 region autofluorescence | compound autofluorescence, A488 spectral region, dye equivalency; hits give high values | 0.1% of 59,000 active | max dye equivalency, M; active = above 10 nM dye equivalent; inconclusive = 1 to 10 nM; inactive = 1 nM or less; about half of its hits are not listed in these tables;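 also: highest value over a series up to 38 µM; compound alone in buffer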
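Readout is A488 dye-equivalent concentration, calibrated by a per-plate six-point Alexa 488 series. Compounds in 100 mM Tris buffer pH 8.0 were incubated 15 min at room temperature. Plates were imaged using 480 nm excitation/540 nm emission filters.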
Resorufin fluor – compound fluoresces in the resorufin spectral region. max dye-equivalent concentration, M. 0.04% of 59,000 active. Compound fluorescence, resorufin region 547/598 nm, buffer; hits give high values. AID 588; active = above 10 nM dye equivalent; inconclusive = 1 to 10 nM; inactive = 1 nM or less; a few of its hits are not listed in these tables; also: highest value over a series up to 38 µM
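Compounds in 100 mM Tris buffer, pH 8.0, incubated 15 min at room temperature, then read with 547 nm excitation and 598 nm emission filters. Fluorescence was converted to dye-equivalent concentration using an on-plate six-point resorufin standard curve.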
AID923 – qHTS Assay for Allosteric/Competitive Inhibitors of Caspase-1: Spectroscopic Profiling in AFC Spectral Region; compound fluorescence, AFC spectral region (405/520 nm); almost no hit is shown here; Potency, µM (highest dose often 57.5 µM), without a hit: at the top dose fluorescence increase, hits mostly activators; 1.1% of 75,000 active; AID 923, 2007; active = well fitted activation curve with a large enough effect; inconclusive = small, poorly fitted or top-dose-only effect;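 also: potency is read from the fitted curve at half-maximal effect; 0% is about no effect; scaled to a free AFC standard on each plate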
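Titrations up to 57 uM read every 20 sec for 3 min (405/520 nm) with 50 nM caspase 1 and 5 uM Ac-WEHD-AFC, pH 7.5 HEPES buffer. Fluorescence-vs-time intercept gave baseline, scaled against on-plate AFC standard.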
A647 autofl – A647 region autofluorescence; Compound fluorescence, A647 channel (570/671 nm), Tris buffer; max dye-equivalent concentration, M; 59,000 tested, under 10 active; AID 592; active means above 1 µM dye equivalent; inconclusive means 0.1 to 1 µM; inactive means 0.1 µM or less;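 also: values scaled relative to a standard on each plate; highest value over a series up to 38 µM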
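Buffer was dispensed, compounds and Alexa 647 standards were pin-transferred, and plates sat 15 min at room temperature. Intensity at 570/671 nm was then converted to dye-equivalent concentration using the plate's A647 standard curve.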
TSHR ag – TSH receptor (human) agonism; P16473; HEK293-CNG-TSHR cells (CNG channel as cAMP sensor), membrane potential dye, cAMP; Potency, µM (doses to about 57.1 µM), for the others: at the top dose activation, most hits filed as activators; 0.48% of 73,000 active; AID 926; active = well fitted activation curve of enough size with the parental cells flat; inconclusive = any curve in the parental cells; inactive = parental cells flat and receptor cells flat or falling; also: potency is read from the fitted curve at half-maximal effect; % of control where 0% means no effect; weak receptor curves with flat parental cells got no call and are not listed
Target sequence (P16473 whole entry, looked up): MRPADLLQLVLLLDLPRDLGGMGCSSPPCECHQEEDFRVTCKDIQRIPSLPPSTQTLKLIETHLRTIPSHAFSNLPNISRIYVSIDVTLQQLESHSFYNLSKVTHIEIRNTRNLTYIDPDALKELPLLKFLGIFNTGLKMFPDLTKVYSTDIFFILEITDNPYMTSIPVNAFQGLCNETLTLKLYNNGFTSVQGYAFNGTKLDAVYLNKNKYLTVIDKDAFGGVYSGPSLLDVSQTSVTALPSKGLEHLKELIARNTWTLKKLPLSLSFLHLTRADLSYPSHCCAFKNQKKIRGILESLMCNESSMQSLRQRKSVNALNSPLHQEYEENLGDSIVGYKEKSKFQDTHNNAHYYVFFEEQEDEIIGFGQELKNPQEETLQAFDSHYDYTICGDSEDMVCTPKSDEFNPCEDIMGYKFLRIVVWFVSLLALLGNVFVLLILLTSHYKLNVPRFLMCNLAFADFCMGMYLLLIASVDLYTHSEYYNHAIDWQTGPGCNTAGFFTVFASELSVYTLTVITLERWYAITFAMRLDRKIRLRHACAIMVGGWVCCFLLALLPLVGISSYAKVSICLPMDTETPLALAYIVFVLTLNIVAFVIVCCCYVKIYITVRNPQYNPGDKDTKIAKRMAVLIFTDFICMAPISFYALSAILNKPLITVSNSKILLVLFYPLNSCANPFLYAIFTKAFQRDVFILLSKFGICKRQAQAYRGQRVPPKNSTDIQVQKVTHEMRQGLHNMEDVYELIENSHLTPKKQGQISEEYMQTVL
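HEK 293 cells stably expressing TSHR and a modified CNG channel, with CNG-only parental cells as counterscreen, were preloaded 60 min at room temperature with membrane potential dye containing 100 uM RO 20-1724. Compound exposure was 30 min, and depolarization was read as fluorescence at 590 nm.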
Numbers without * were called inactive; i = inactive; u = inconclusive; x = not tested or not shown; & = joins results of further samples; [ ] = another dose, or the depositor's remark. Only part of the results is shown. The share of hits here may be higher or lower than overall.

SMILES	A488 fluor	Resorufin fluor	AID923	A647 autofl	TSHR ag
CCOc1ccccc1C(=O)NCCCN1CCN(CCCNC(=O)c2ccccc2OCC)CC1	i	i	1.8%	5e-09	11%
CCOC(=O)C1CCCN(CC(=O)NC2CC2)C1 (configuration not stated)	i	i	2.4%	1.5e-09	0%
Cn1cccc1C(=O)N1CCC2(CCN(C(=O)Nc3cccc(C#N)c3)CC2)CC1	i	i	-0.3%	2.6e-09	15%
NS(=O)(=O)c1ccc(CCNC(=O)Nc2ccc(Cl)cc2)cc1	x	x	0.0%	x	-2%[11.4 µM]
Cc1onc(-c2ccccc2)c1C(=O)NCCN1CCOCC1	x	x	0.3%	x	2%
CCOC(=O)CN1C(=O)C(O)(CC(=O)c2ccccn2)c2ccccc21 (configuration not stated)	x	x	1.4%	x	u
O=c1[nH]nnc2sc3c(c12)CCCC3	i	i	-0.9%	1e-09	1%
Cc1cnn(-c2nc(-c3cccs3)cc(C(F)(F)F)n2)c1	i	i	0.8%	5.4e-09	20%
CCCn1nnnc1SCC(=O)N1CCOCC1	i	i	0.2%	3.3e-08	-3%
Cc1cc(C)n2nc(C(=O)OCCOc3ccc(Br)cc3)nc2n1	i	i	-0.9%	5.4e-09	12%

Looked up one by one from the list above:
SMILES	A488 fluor	Resorufin fluor	AID923	A647 autofl	TSHR ag
CCOc1ccccc1C(=O)NCCCN1CCN(CCCNC(=O)c2ccccc2OCC)CC1	i	i	1.8%	5e-09	11%
CCOC(=O)CN1C(=O)C(O)(CC(=O)c2ccccn2)c2ccccc21 (configuration not stated)	x	x	1.4%	x	u
Cn1cccc1C(=O)N1CCC2(CCN(C(=O)Nc3cccc(C#N)c3)CC2)CC1	i	i	-0.3%	2.6e-09	15%

(list continues)
SMILES	A488 fluor	Resorufin fluor	AID923	A647 autofl	TSHR ag
O=C(COC(=O)c1ccco1)NC1CCCCC1	i	i	1.7%	1e-09	-3%
COc1ccc(Oc2ncc3nc(C)c(=O)n(C4CC4)c3n2)cc1	i	i	4.6%	1.6e-08	2%
Cc1cc(C)nc(-n2nc(C)c(C3(O)C(=O)Nc4ccccc43)c2N)n1 (configuration not stated)	i	i	0.0%	1.2e-09	x
COc1ccccc1C(=O)n1nc(C)cc1C	x	x	0.2%	x	1%
N/N=C1/c2ccccc2N[C@H]1OC(=O)Nc1ccccc1	i	i	11%[11.5 µM]	2.3e-09	-11%[11.4 µM]
CCC(NS(=O)(=O)c1ccc(C)cc1)C(=O)O (configuration not stated)	i	i	-1.3%	3.1e-09	-6%
CN(CCNC(=O)c1cn(C)c2ccc(S(=O)(=O)N(C)C)cc2c1=O)CCc1ccccc1	x	x	-0.9%	x	2%
NC(=O)c1c(NC(=O)CN2CCOCC2)sc2c1CCC2	i	i	1.7%	3.9e-08	0%
CCC(C)NC(=O)C1CCC(=O)N(c2ccc3c(c2)OCO3)C1c1ccc(OC)cc1 (configuration not stated)	x	x	-4.4%	x	4%
CCOc1cccc(C(=O)N(Cc2ccco2)C2CCS(=O)(=O)C2)c1 (configuration not stated)	i	i	-0.4%	1e-09	-3%
CCOC(=O)Cc1csc2nc3sc(C)c(C)c3c(=O)n12	i	i	1.6%	3.7e-08	1%
COc1cccc(=O)c2c(C)oc(C)c12	u	i	1.6%	3.6e-08	5%
Cc1cc(C)c2nc(N)sc2c1	i	i	-1.3%	9.3e-09	-8%
O[C@H](CN1CCN(c2cccc(Cl)c2)CC1)C(c1ccccc1)c1ccccc1	i	i	-0.3%&-0.6%	1e-09	u
CC(C)Cn1nc(NS(=O)(=O)c2ccccc2)c2cc3ccccc3nc21	i	i	0.3%	4.1e-09	x
Cc1ccccc1-c1cncnc1NCCN1CCOCC1	i	i	-1.9%	1e-09	-1%
COc1cc2ccccc2cc1C(=O)Nc1cccnc1	i	i	-0.3%	1e-09	u
CCC(=O)N1CCN(c2ccc(NC(=O)c3ccc4c(c3)OCO4)cc2)CC1	i	i	1.3%	1.4e-08	5%
CCCNS(=O)(=O)c1ccc(OCC(=O)NCCCOC)cc1	i	i	-1.1%	6.8e-09	-2%
O=S(=O)(c1ccc2c(c1)nc(COc1ccc(Cl)cc1)n2CC1CCCO1)N1CCOCC1 (configuration not stated)	i	i	1.0%	3.7e-08	14%
Cc1[nH]c(=S)n(CC2CCCO2)c1C (configuration not stated)	i	i	5.4%	1e-09	7%
O=C(C1CCCN(S(=O)(=O)c2cccnc2)C1)N1CCN(c2ccccn2)CC1 (configuration not stated)	x	x	2.9%	x	-4%
COc1ccc(Cn2nnnc2C(c2cccnc2)N2CCN(c3ccc(O)cc3)CC2)cc1 (configuration not stated)	i	i	0.8%	1e-09	-3%[11.4 µM]
CSCCC(NC(=O)c1ccc(C)o1)C(=O)O (configuration not stated)	i	i	1.5%	1.5e-08	-4%
COc1ccc(-n2cnnc2)cc1	i	i	2.6%	2.3e-08	19%
O=C(Cc1ccsc1)NCC(c1ccco1)N1CCCCC1 (configuration not stated)	i	i	4.0%	2.1e-09	u
CCc1ccccc1N(CC)C(=O)c1cn(C)c(=O)c2cc(OC)c(OC)cc12	i	i	0.4%	7.4e-09	16%[11.4 µM]
CCCCNc1nc(C)nc2c1nc(-c1ccccc1)n2CCN1CCCC1	x	x	1.0%	x	u
O=C(CN(c1ccc(F)cc1)S(=O)(=O)c1ccc2c(c1)OCCO2)NCc1ccccn1	i	i	2.0%	1.2e-09	8%
Cc1c(C(=O)N2CC(C)OC(C)C2)sc2nc(-c3ccccc3)cn12 (configuration not stated)	i	i	0.9%	1.1e-09	10%
COC(=O)CSc1nnc(C)c(=O)[nH]1	i	i	x	1e-09	x
Cc1oc2cc(O)ccc2c(=O)c1N1C(=O)c2ccccc2C1=O	x	x	2.7%	x	-6%
O=C(Nc1nccs1)C1CCN(S(=O)(=O)c2ccc3c(c2)OCCCO3)CC1	i	i	0.4%	3.9e-09	9%
Cc1cc(C(=O)COc2ccc(-c3nnco3)cc2)c(C)n1Cc1ccccc1	i	i	1.9%	1e-09	u
Cn1c(NCc2cccnc2)nc2c1c(=O)n(Cc1ccccc1F)c(=O)n2C	i	i	x	5.7e-08	x
c1ccc2c(c1)nc(N1CCN(C3CCCCC3)CC1)c1nnnn12	i	i	3.8%	4.3e-08	u
c1ccc(Cn2nnnc2C(c2cccs2)N2CCSCC2)cc1 (configuration not stated)	i	i	1.1%	1e-09	u
Cc1onc(-c2c(F)cccc2Cl)c1C(=O)OCC(=O)Nc1c(C)n(C)n(-c2ccccc2)c1=O	i	i	-1.6%	3.8e-08	1%[11.4 µM]
COc1ccc(CNC(=O)c2noc3c2CCCC3)cc1	i	i	-0.8%	3e-09	u
Cc1ccc(S(=O)(=O)NC(C)C(=O)NC2CCCCCC2)cc1 (configuration not stated)	i	i	-1.6%	2.7e-08	u
Cn1c2c(c(=O)n(C)c1=O)CN(Cc1ccc(F)cc1)CN2	i	i	0.5%	2.7e-08	-1%
O=C1NC(c2cc3c(cc2Cl)OCO3)Oc2ccccc21 (configuration not stated)	i	i	-1.3%	1.8e-08	18%
C=CCc1ccccc1OCC(CN1CCCCC1)OC(C)=O (configuration not stated)	i	i	0.7%	7.6e-09	10%
Nc1ncnc2c1ncn2[C@H]1O[C@@H](CO)[C@@H](O)[C@H]1N	i	i	-1.0%[11.5 µM]	7.4e-09	-1%[11.4 µM]
Cc1ccc(CCN2CC(C(=O)NCCCN3CCCCCC3)CC2=O)cc1 (configuration not stated)	i	i	0.1%	4.3e-08	-1%
Cc1nn(C)c(C)c1S(=O)(=O)N1CCC(C(=O)NC2CCCc3ccccc32)CC1 (configuration not stated)	x	x	5.8%	x	0%
CCOc1nc(-c2ccccc2)ccc1-c1noc(COC)n1	i	i	1.3%	1e-09	20%
COC(=O)C1C(=O)C2=C(CC1C)NC(=O)CC2c1ccccc1 (configuration not stated)	i	i	1.3%	2.9e-08	x
N#CC1=C(SCC(=O)c2ccc(Br)cc2)NC2=C(C(=O)CCC2)C1c1ccco1 (configuration not stated)	i	i	x	2.4e-08	x
O=C(Nc1cccc(-c2nnc(-c3ccccc3)o2)c1)C1CCCO1 (configuration not stated)	i	i	-0.7%	2.5e-08	-19%
Other compounds follow.
SMILES	A488 fluor	Resorufin fluor	AID923	A647 autofl	TSHR ag
CCCCn1cnc2c(cnn2-c2ccc(Cl)cc2)c1=O	i	i	-0.7%	1.3e-08	u
O=C(Cc1ccc2cccnc2c1)c1ccc(O)cc1O	i	i	-1.8%	5.6e-09	-3%
O=C(O)C1CCN(c2nc(-c3ccccc3)nc3c2oc2ccccc23)CC1	i	i	2.7%	2.2e-08	10%
CCn1c(=O)c2c(cnn2C)c2ccccc21	i	i	-2.5%	6.2e-09	17%
C=CCn1c(=O)n(CCOC)c(=O)c2sc3ccccc3c21	x	x	-2.0%	x	13%
COc1ccccc1NC(=O)CSc1nnnn1C	x	x	-0.5%	x	-1%
OC[C@@H]1O[C@@H](n2cnc3c(NCCc4ccccc4)ncnc32)[C@@H](O)[C@H]1O	i	i	x	1.4e-08	u
CN1CCN(Cc2nc(N)nc(Nc3ccc4c(c3)OCCO4)n2)CC1	i	i	0.3%	3.3e-09	0%
CC(C)(C)C(=O)Cn1c(=N)n(Cc2ccccc2)c2ccccc21	i	i	-0.6%	1.5e-09	8%
CCOC(=O)CC1=CC(C)(CC(=O)OCC)C(C#N)(C#N)C(N)=C1C#N (configuration not stated)	i	i	2.5%	2.5e-08	-1%
CC[n+]1cc(-c2ccccc2)nc(N2CCOCC2)n1	i	i	-1.1%	1e-09	4%
CCOC(=O)C1=C(Cn2ccc(C(F)(F)F)n2)NC(=O)NC1c1ccc2c(c1)OCO2 (configuration not stated)	i	i	-1.4%	1.8e-08	6%
CN(C)c1ccc(-c2cncnc2NCc2ccccc2)cc1	i	i	-1.6%	9.6e-09	28%
N#Cc1c(-c2ccc(Cl)cc2Cl)nc2n(c1=O)CCS2	i	i	1.4%	1e-09	-1%
COc1cc(CN2CCC(C(=O)N3CCCC(C)C3)CC2)cc(Br)c1O (configuration not stated)	i	i	0.1%	4.8e-08	2%
COc1ccc(C(=O)NCc2cn3ccccc3n2)cc1	i	i	-0.6%	4.4e-09	-6%
CCc1nn(CC(=O)N2CCN(Cc3ccc4c(c3)OCO4)CC2)c(=O)c2cc3occc3n12	i	i	1.2%	6.3e-09	0%
Cc1[nH]n(-c2ccccc2)c(=O)c1/C=N/c1ccccn1	i	i	2.7%	1e-09	3%
CCOC(=O)c1[nH]c(C)c(C(=O)N(CC)CC)c1C	x	x	-0.7%	x	u
CCc1nnc(SCc2ccc(CSc3nnc(CC)n3N)cc2)n1N	i	i	-2.8%	1e-09	-3%

One compound at a time, from the list above. Order of screens: A488 fluor | Resorufin fluor | AID923 | A647 autofl | TSHR ag
Cc1[nH]n(-c2ccccc2)c(=O)c1/C=N/c1ccccn1 is listed as i | i | 2.7% | 1e-09 | 3%
N#Cc1c(-c2ccc(Cl)cc2Cl)nc2n(c1=O)CCS2 is listed as i | i | 1.4% | 1e-09 | -1%
COc1ccc(C(=O)NCc2cn3ccccc3n2)cc1 is listed as i | i | -0.6% | 4.4e-09 | -6%
CN(C)c1ccc(-c2cncnc2NCc2ccccc2)cc1 is listed as i | i | -1.6% | 9.6e-09 | 28%
CCc1nnc(SCc2ccc(CSc3nnc(CC)n3N)cc2)n1N is listed as i | i | -2.8% | 1e-09 | -3%

Later entries.
SMILES	A488 fluor	Resorufin fluor	AID923	A647 autofl	TSHR ag
COc1ccccc1C(=O)NCCn1cc(SCC(=O)Nc2cc(C)on2)c2ccccc21	i	i	0.0%	2.1e-08	u
O=S(=O)(c1cccc(-c2nc3ccccc3s2)c1)N1CCCC1	i	i	1.9%	1e-09	u
Brc1ccc(CSc2nnc(Cc3c[nH]c4ccccc34)o2)cc1	i	i	-1.1%	4.2e-08	u
Cc1ccc(-c2noc(CCC(=O)N(C)c3ccccc3C)n2)cc1	i	i	-0.3%	1e-09	x

Source: PubChem (National Center for Advancing Translational Sciences (NCATS))
